# T cruzi repl: T. cruzi replication inhibition. inhibition, % (concentration not given with the values). T. cruzi beta-gal in NIH3T3, luminescence, 90 h. 300,000 tested, 1.4% active. AID 1885;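 active = mean inhibition across valid replicates above about 55%, limit read from the data; inconclusive = mean below that limit but half or more replicates reach it; inactive = mean below it, under half of replicates reach it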;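 also: signal also drops with host cell toxicity which is not excluded here; 0% = plate median of DMSO wells and 100% = zero luminescence signal; higher percent means less beta-gal luminescence so fewer parasites; stock transfer was 50 nL into about 50 µL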
# MLL AF4-AF9 inh: inhibitors of human MLL-AF4/AF9 interaction. AlphaScreen, biotin-AF4 peptide binding to FLAG-AF9. 350,000 tested, 0.47% active. AID 651704. inhibition, % at 10 µM. P42568;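 active = every replicate reaching a set inhibition limit, whatever the replicate mean, cut at about 25% in these data; inconclusive = mean inhibition reaches that limit but some replicates miss it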;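 also: 0% = plate neutral control median and 100% = total signal loss; the record names both 10 and 1 µM as test concentration; the first replicate is given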
# Target sequence (P42568 whole entry, looked up): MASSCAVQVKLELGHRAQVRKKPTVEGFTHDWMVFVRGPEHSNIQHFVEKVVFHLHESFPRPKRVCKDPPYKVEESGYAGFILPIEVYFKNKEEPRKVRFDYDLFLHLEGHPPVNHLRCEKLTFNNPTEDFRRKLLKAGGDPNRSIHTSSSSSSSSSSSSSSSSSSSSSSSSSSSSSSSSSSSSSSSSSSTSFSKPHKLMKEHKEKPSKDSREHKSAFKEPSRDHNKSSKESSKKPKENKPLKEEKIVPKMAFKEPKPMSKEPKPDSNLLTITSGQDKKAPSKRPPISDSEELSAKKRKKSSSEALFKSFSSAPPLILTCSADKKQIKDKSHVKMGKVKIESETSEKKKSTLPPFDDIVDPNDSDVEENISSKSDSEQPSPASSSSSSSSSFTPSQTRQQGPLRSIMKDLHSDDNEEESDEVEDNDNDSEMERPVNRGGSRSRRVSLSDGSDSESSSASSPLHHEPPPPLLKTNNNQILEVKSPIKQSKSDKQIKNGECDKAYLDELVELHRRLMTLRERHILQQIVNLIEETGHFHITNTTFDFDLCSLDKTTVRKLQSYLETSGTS
# RanGTP-Imp inh: inhibitors of RanGTP-importin-beta interaction, primary screen, biochemical, FRET, CFP-Ran, YFP-importin-beta, homogeneous; cell-free CFP-Ran/YFP-importin-beta FRET ratio; inhibition, % (no concentration beside the values); 300,000 tested, 1.1% active; AID 2216;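 active = most replicates above 15%; inconclusive = exactly half above 15%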;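 also: 0% = DMSO wells and 100% = Ran loaded with GDP instead of GTP; wells of about 40 µL received 100 nL stock; the first replicate is given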
# Calb FLC: affects C. albicans growth with fluconazole. C. albicans CaCi-2 (fluconazole-resistant clinical isolate) + fluconazole, Alamar Blue growth, 48 h. growth inhibition, % (test concentration not listed). 300,000 tested, 0.57% active. AID 1979;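 active = most replicates above 75%; inconclusive = exactly half above 75%; inactive = most below 75%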;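 also: all wells also contain fluconazole at 8 µg/ml as a sub-toxic cotreatment; 0% = median of DMSO wells and 100% = median of geldanamycin control wells; wells of about 8 µL received 7.5 nL stock; the first replicate is given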
# rRNA inh HTS: inhibitors of bacterial rRNA selective over humanized ribosomes; E. coli WT GFP vs humanized-ribosome RFP mutants, fluorescence, 24 h; hits give low values; DMSO median 0, no signal -100; GFP signal change (wild-type ribosome), % (concentration not given with the values); 350,000 tested, 1.6% active;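 active = significant combined selectivity score with lowered wild-type GFP, culture density cut under 30%, mutant RFP and density less affected; inactive = any of these conditions unmet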; also: one replicate is shown; some compounds called inactive have numbers as strong as hits
# ALR H2O2 inh: human ALR oxidase inhibition via reduced H2O2 | P55789 | inhibition, % (no concentration beside the values) | purified ALR, DTT oxidation, H2O2 HRP-luminol luminescence | 290,000 tested, 3.8% active;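 active = mean and each replicate at 75% or more; inconclusive = only one of the two met; inactive = neither met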;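 also: stock transfer was 7.5 nL into about 7.5 µL; 0% = neutral wells and 100% = wells with inactivated enzyme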
# Target sequence (P55789 whole entry, looked up): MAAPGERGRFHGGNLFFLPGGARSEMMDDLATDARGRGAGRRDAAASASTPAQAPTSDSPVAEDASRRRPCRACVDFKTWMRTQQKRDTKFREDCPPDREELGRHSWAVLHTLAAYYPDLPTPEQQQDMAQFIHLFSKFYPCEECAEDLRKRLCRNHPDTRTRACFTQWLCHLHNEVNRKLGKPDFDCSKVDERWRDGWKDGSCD
# Beta apoptosis: beta cell apoptosis inhibition; INS-1E cytokine-induced death, ATP luminescence, 48 h; percent of positive-control rescue, neutral wells zero; AID 435005; 300,000 tested, 0.8% active; protection from apoptosis, % (test concentration not listed);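 active = all replicates at 75% or more, or half of them and the mean; inconclusive = half reach 75% but not the mean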;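 also: 0% = cytokine-treated negative control wells and 100% = positive control rescue; higher means more ATP so stronger rescue from cytokine killing; wells of about 40 µL received 100 nL stock; the first replicate is given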
# FGF22 binding: shifts melting point of recombinant human FGF22; recombinant FGF22 thermal shift, SYPRO orange fluorescence; percent of sucrose octasulfate shift, DMSO zero; AID 651658; Q9HCT0; 340,000 tested, 1.5% active; calls only at 9.99 µM;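 active = melting point raised past a set limit in the mean and every replicate; inconclusive = no clear call; three in four hits are not shown here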
# Target sequence (Q9HCT0 whole entry, looked up): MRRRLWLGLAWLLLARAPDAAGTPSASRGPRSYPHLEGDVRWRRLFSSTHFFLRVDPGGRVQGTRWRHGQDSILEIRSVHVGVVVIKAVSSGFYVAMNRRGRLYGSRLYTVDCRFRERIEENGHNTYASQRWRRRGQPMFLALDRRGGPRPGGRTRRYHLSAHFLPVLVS
# rRNA inh HTS OD600: also measured in rRNA inh HTS; calls as there; OD600 change, %; measured here: OD600 growth;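 optical density of the mix in the first replicate; 0 = DMSO median and -100 = no signal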
# rRNA inh HTS RFP: also measured in rRNA inh HTS; calls as there; RFP signal change, %; measured here: RFP humanized mutant strains;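 first replicate; 0 = DMSO median and -100 = no signal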
# An asterisk follows results filed as active; i = inactive; ? = inconclusive; . = not tested or not shown; & = joins results of further samples. Only part of the results is shown; the hit share may differ from the screen's.
SMILES,T cruzi repl,MLL AF4-AF9 inh,RanGTP-Imp inh,Calb FLC,rRNA inh HTS,rRNA inh HTS OD600,rRNA inh HTS RFP,ALR H2O2 inh,Beta apoptosis,FGF22 binding
COc1cccc(C2CCCN2Cc2nc(-c3sccc3C)oc2C)c1 (stereo not given),3,6.2,-3.2,5,-5,-7,3.6,3,0,i
CCN1CCN(c2nc3c(c(=O)n(C)c(=O)n3C)n2CCSc2ncccn2)CC1,-6,.,0.3,-12,.,.,.,-4,-4,.
CN(C)CCOC(=O)c1ccc2c(c1)S(=O)(=O)c1ccccc1C2=O,-7,-2.1,1.6,-10,12,-7,-2.2,-3,-11,i
O=C(O)c1cc2ccccc2c(N=Nc2cccnc2)c1O,-13,.,-6.6,41,.,.,.,-4,-36,.
Cc1cc(C)c2nc(SCC(=O)Nc3ccccc3N3CCOCC3)c(C#N)cc2c1,-3,.,-1.6,5,.,.,.,-25,1,.
CCCCNC(=O)c1ccc(SCC(=O)N(CC)CC)c([N+](=O)[O-])c1,-7,-2.5,0.0,-22,16,12,-1.0,-6,-3,.
CC1CCN(c2nc3c(c(=O)[nH]c(=O)n3C)n2Cc2ccccc2)CC1,12,-6.8,5.1,0,5,5,0.3,.,-4,i
O=c1c2ccc([N+](=O)[O-])cc2ncn1CCOc1ccccc1,66*,-5.8,2.3,44,7,6,2.9,19,4,i
Cc1ccc2cc(C#N)c(N3CCCN(S(=O)(=O)c4ccccc4)CC3)nc2c1,1,.,?,1,.,.,.,-32,1,.
Cc1nn(C)c(C)c1CN(Cc1nc(CCC(C)C)no1)C(C)C,33,0.0,0.4,36,3,8,-1.2,3,94*,i
N#C/C(=C\c1ccc(O)cc1)C(=O)N1CCCC1,-7,6.8,0.8,2,10,3,3.5,81*,-1,i
COc1ccccc1C1CC(c2ccccc2)=NN1C(=S)Nc1ccccc1 (stereo not given),-8,8.3,2.0,30,7,6,3.3,.,6,i
Cn1nc(C(=O)N2CCCc3ccccc32)c2ccccc2c1=O,2,-2.5,-0.2,0,10,-1,-3.3,-14,-2,i
S=c1[nH]nc(-c2cc(-c3ccccc3)n[nH]2)n1/N=C/C=C/c1ccccc1,6,-2.7,0.4,23,-12,24,0.0,-7,-2,i
CCn1cc([N+](=O)[O-])c(C(=O)N2N=C(c3ccc(OC)cc3OC)CC2c2ccccc2O)n1 (stereo not given),3,-1.2,3.8,26,-1,12,13,6,.,i
CCCCCCCCS(=O)CCC(=O)O (stereo not given),-5,0.0,0.2,4,7,6,1.2,-1,.,i
O=C1Nc2cc(Cl)c(Cl)cc2N(O)N1c1ccccc1,-10,.,?,-9,.,.,.,.,-5,.
O=C(c1ccncc1)N1CCN(c2ccc3ccccc3n2)CC1,-12,-0.8,1.0,9,-3,-3,-0.8,.,-5,i
CCOC(=O)c1c(C)nc2sc(C(N)=O)c(N)c2c1-c1ccc(OC)cc1,21,.,-1.8,-6,.,.,.,1,-2,.
CCCCCCCC1=CC2=CC(=O)C(C)(OC(C)=O)C(=O)C2=CN1CCc1ccccc1 (stereo not given),0,.,3.5,3,.,.,.,-7,-4,.
Cc1cc(OC(C)C(=O)NCCN2CCOCC2)c2c(C)cc(=O)oc2c1 (stereo not given),4,-1.8,-1.4,-2,2,8,-1.9,-4,-3,i
COc1cccc(CN2C(=O)CN(C3CCCCC3)C(=O)C2c2ccc(F)cc2)c1 (stereo not given),10,.,-5.8,-16,.,.,.,7,-5,.
NS(=O)(=O)c1ccc(CCNC(=O)NC2CCCCC2)cc1,-7,1.0,1.8,-12,5,3,6.8,12,-4,i
Cc1cnc(CN(C)C(=O)c2cc(COc3c(F)cccc3F)on2)[nH]1,23,2.3,?,-13,-8,-5,0.1,-20,-5,i
Cc1cccc(N2CC(C(=O)Nc3cccc(S(=O)(=O)N4CCCCC4)c3)CC2=O)c1C (stereo not given),.,1.1,.,.,-25*,-17*,6.0*,-3,9,i
Cc1ccc(C(=O)Nc2ccccc2NC(=O)c2ccc(C)o2)o1,12,.,-0.6,36,.,.,.,69,-9,.
Nc1nonc1C(=O)N/N=C/c1cc(Br)ccc1O,1,7.6,-0.3,101*,-33,-43,0.7,-6,13,i
Cc1nc2ccccc2n1CCC(=O)O,-10,.,0.4,-11,.,.,.,-14,-5,.
CC(=O)O/N=C(\N)Cc1ccc(-c2csnn2)cc1,3,-2.4,1.2,-20,.,.,.,-27,-4,i
CNC(=O)CSc1nc2[nH]ncc2c(=O)[nH]1,-5,-0.8,-0.5,0,15,23,5.3,4,-1,i
CC(=O)c1cc(CC=C(C)C)c(O)c(CC=C(C)C)c1O,-6,.,9.2,1,.,.,.,.,1,.
Cn1nc(C(F)(F)F)c(-c2cccc(C(F)(F)F)c2)c1NC(=O)c1ccco1,-9,0.5,-11,-1,-20,-37,2.2,.,.,i
Cc1ccc(NC(=O)C2CCCN2S(=O)(=O)c2ccc3c(c2)n(C)c(=O)c(=O)n3C)c(C)c1 (stereo not given),-1,4.9,0.4,3,3,3,2.4,.,1,i
CCC(C)NS(=O)(=O)c1ccc(OCC(=O)NCc2cccnc2)cc1 (stereo not given),-5,.,-1.7,-1,.,.,.,-3,1,.
CS(=O)(=O)NN1C(=O)c2ccccc2NC1c1ccccc1 (stereo not given),-11,-1.1,4.0,6,7,5,-3.6,0,-2,i
CC(C)(O)C#Cc1ccc(C(=O)N2CCN(c3ccc(Cl)cc3)CC2)cc1,21,0.0,?,-5,3,-8,-1.1,15,-4,i
CN=C1NN=C(c2cc(C)n(-c3ccc(Cl)cc3)c2C)CS1,11,2.5,2.1,-5,3,7,4.0,-8,0,i
OC1(c2ccc3c(c2)OCO3)CCN(Cc2ccccn2)CC1,-8,3.9,1.6,-6,7,11,-8.2,3,-6,i
CCOC(=O)C1CCN(S(=O)(=O)c2ccc(-c3ccccn3)s2)CC1,-15,0.1,-3.1,2,16,4,0.3,-16,-1,i
CSc1ccc(/C=C(/NC(=O)c2ccco2)C(=O)N2CCCCCC2)cc1,8,4.8,0.6,2,-4,-14,0.6,14,0,i
CC1=NN(C(=O)Cc2ccc(C)cc2)C(O)(c2cccnc2)C1 (stereo not given),6,.,2.3,4,.,.,.,5,-7,.
CCCCC(=O)NS(=O)(=O)c1ccc(N=NN(CC)CC)cc1,1,-1.7,-1.5,19,-8,-5,-1.3,0,-5,.
CC(C)OC(=O)C1C(=O)CC(C)(O)C(C(=O)OC(C)C)C1c1ccccc1 (stereo not given),-9,-1.2,4.4,30,3,4,-3.0,-9,-4,i
CCC(=O)Nc1ccc2c(c1)C(=O)N(C1CCCCC1)C2=O,11,.,0.7,-4,.,.,.,-1,.,.
CCc1cc(=O)oc2cc(C)c(CN3CCCCC3)c(O)c12,0,.,-6.1,-11,.,.,.,0,3,.
COc1ccc(OCCOC(=O)c2cc(S(=O)(=O)N3CCOCC3)c(Cl)cc2Cl)cc1,-2,-1.3,1.5,4,-1,-6,3.6,-9,3,i
CCOc1ccc2nc(SCC(=O)NC3CCS(=O)(=O)C3)[nH]c2c1 (stereo not given),-3,.,-1.4,9,.,.,.,-4,2,.
COc1ccc(-c2ccc([C@H]3[C@H]4C=CC[C@@H](C)[C@@H]4C(=O)N3Cc3ccccc3)c(F)c2)cc1C,17,.,-3.7,4,-1,3,-2.5,.,2,i
c1ccc(NCn2cncn2)nc1,-4,.,2.0,3,.,.,.,-2,-11,.
CN(C)c1ccc(C2C3C(=O)N(c4ccc(C(=O)O)cc4)C(=O)C3ON2c2ccccc2)cc1 (stereo not given),7,.,-4.9,-5,.,.,.,76*,3,.
O=c1c2c(n3cnnc3n1-c1ccccc1)-c1ccccc1CC21CCCC1,6,-11,5.6,-2,.,.,.,1,-7,i
c1ccc2c(c1)CCCN2Cc1nnc2n1CCCCC2,2,.,-8.5,-4,.,.,.,-1,-1,.
COc1ccc(C(=O)c2ccc(OC)cc2O)c(O)c1,17,.,-2.5,8,.,.,.,0,-3,.
CCC(C)Sc1cccc(-c2nc3ccc(C)cn3c2NCc2ccccc2)c1 (stereo not given),42,10.0&12,7.4,-4,-31,-42,11,.,?,i
O=C(Nc1ccc(Nc2ccccc2)cc1)C(Cl)Cl,22,.,4.7,-42,.,.,.,92*,7,.
CCC(=O)Nc1nc2ccc(S(C)(=O)=O)cc2s1,6,.,3.6,-5,.,.,.,-3,1,.
COc1ccc(CN(C)C(=O)c2ccccc2Sc2ccccc2C#N)c(OC)c1,29,2.0,0.3,-1,-14,-21,1.8,-1,-10,i
O=C1NN(c2ccccc2)C(=O)/C1=C/c1ccc(-c2ccc(C(=O)O)cc2)o1,0,-28,5.2,-22,7,3,1.1,99*,.,i
Cn1c(Sc2ccc(C(F)(F)F)cc2[N+](=O)[O-])nnc1-c1ccccc1,14,.,1.5,23,.,.,.,6,-2,.
COc1ccc(N2C(=O)C3C4C=CC(c5ccccc5)(C3C2=O)C2C(=O)N(c3ccc(OC)cc3)C(=O)C42)cc1 (stereo not given),4,-1.0,3.4,6,14,6,-2.1,-5,-3,i

# Continued:
SMILES,T cruzi repl,MLL AF4-AF9 inh,RanGTP-Imp inh,Calb FLC,rRNA inh HTS,rRNA inh HTS OD600,rRNA inh HTS RFP,ALR H2O2 inh,Beta apoptosis,FGF22 binding
CCOC(=O)CSc1nc2c([nH]c3ccccc32)c(=O)n1C,2,.,0.7,22,.,.,.,3,3,.
COc1ccc(-n2nc(C(=O)NCC(=O)NCc3ccccc3OC)c3ccccc3c2=O)cc1,1,-3.1,2.8,-5,6,4,-1.3,3,-3,i
Nc1ccnc(Oc2ccc(F)cc2)c1,-5,.,2.9,-12,.,.,.,0,-7,.
N#Cc1ccccc1NC1=CC(=O)CCC1,-6,.,58*,-9,.,.,.,-4,-1,.
COc1cc2cc(C(=O)N3CCN(Cc4ccc5c(c4)OCO5)CC3)c(=O)oc2cc1OC,25,.,6.4,-3,5,3,1.7,-9,-3,i
NNC(=O)COc1ccc(-c2nccc(-c3ccc(F)cc3)n2)cc1,-2,-1.3,?,-6,-1,1,1.2,-3,-4,i
CC(C)NC(=O)CSc1nc2ccccc2n1CC(=O)N1CCc2ccccc21,17,4.3,-0.5,8,9,7,-9.0,67,0,i
C=CCNC(=O)CN(c1ccc(OC)cc1OC)S(C)(=O)=O,2,.,-1.6,-16,.,.,.,2,-3,.
CCCN(C(=O)c1nc2nc(C)cc(C)n2n1)c1c(N)n(Cc2ccccc2)c(=O)[nH]c1=O,.,-0.3,.,.,19,18,0.1,-11,1,i
Cc1cc(C(F)(F)F)c2c(C)nn(-c3ccccc3)c2n1,3,-2.6,8.7,0,4,8,-0.3,1,-4,i
COCCn1c(N)c(C(=O)NS(=O)(=O)c2ccc(C)cc2)c(=O)[nH]c1=O,-6,-1.7,-2.7,16,12,9,-0.2,.,2,i
COc1ccc(S(=O)(=O)N(CC(=O)NC2CC3CCC2C3)c2ccccc2OC)cc1 (stereo not given),17,-0.3,1.7,-2,-16,-8,4.2,.,8,i
